Screening data: PubChem, National Center for Advancing Translational Sciences (NCATS)
VDR inh: blocks the human vitamin D receptor; VDR-SRC2-3 peptide fluorescence polarization, 2 h; Potency, µM, inactives show max response, negative = inhibition, usual class: inhibitors; 400,000 tested, 0.93% active; AID 504847; P11473; active = well fitted inhibition curve with a large enough effect; inconclusive = small, poorly fitted or top-dose-only effect, or another doubt; inactive = no such curve, though single readings can be large or run the other way; note: series mostly up to about 120 µM
Target sequence (P11473 whole entry, looked up): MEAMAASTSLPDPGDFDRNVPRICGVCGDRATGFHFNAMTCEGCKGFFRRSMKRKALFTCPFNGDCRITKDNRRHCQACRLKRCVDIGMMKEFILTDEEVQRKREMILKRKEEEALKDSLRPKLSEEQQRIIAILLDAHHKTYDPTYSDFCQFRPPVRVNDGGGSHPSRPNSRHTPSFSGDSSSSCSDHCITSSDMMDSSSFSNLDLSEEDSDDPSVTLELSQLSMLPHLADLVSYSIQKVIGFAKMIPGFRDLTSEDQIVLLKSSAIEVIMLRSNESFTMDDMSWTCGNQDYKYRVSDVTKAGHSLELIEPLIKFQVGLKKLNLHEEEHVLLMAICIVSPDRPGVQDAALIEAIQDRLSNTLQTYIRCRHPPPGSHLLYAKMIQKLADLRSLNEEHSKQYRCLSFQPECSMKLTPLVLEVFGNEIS
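VDR–SRC2-3 interaction, FP format. Cmpds 23 nl via pintool, brief spin, 2 h ambient incubation.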
* marks the source's active call; other numbers are inactive results; ? = inconclusive; & = joins results of further samples. % is set by controls: 0 for no effect and ±100 for the full control effect; potency is the fitted concentration of half-maximal effect.

Molecule	VDR inh
COc1ccccc1C(CNC(=O)c1ccc(S(=O)(=O)N2CCCCC2)cc1)N(C)C (configuration not stated)	-2%
O=C1O[C@@H]([C@@H](O)CO)[C@@H](O)[C@H]1O	-20%&-12%
CCOc1ccc(NC(=O)Cn2c(=O)n(CC(=O)NCc3ccccc3Cl)c(=O)c3sccc32)cc1	16%
Cc1cccc(N2CCN(C(=O)CN3C(=O)COc4ccc(S(=O)(=O)N5CCC(C)CC5)cc43)CC2C)c1 (configuration not stated)	13%
CCCCSc1nc2ccccc2n1CC(=O)O	10%
Nc1ccc2c(c1)sc1ccccc12	-4%
CC[C@]12C(=O)N(C)C[C@H]([C@@H]3C(=O)N(Cc4ccccc4)C(=O)[C@@H]31)N2C(=O)c1ccccc1	-19%
COc1ccc(C(=O)CCC(=O)N2CCN(c3ccccc3)CC2)cc1	-21%
O=C(NCCc1c[nH]c2ccccc12)/C(=C/c1cccnc1)NC(=O)c1ccccc1	-16%
C(=C\c1ccccc1)/CNCC1CCCO1 (configuration not stated)	8%

Overlap with the part before: four compounds, then new ones.
Molecule	VDR inh
CC[C@]12C(=O)N(C)C[C@H]([C@@H]3C(=O)N(Cc4ccccc4)C(=O)[C@@H]31)N2C(=O)c1ccccc1	-19%
COc1ccc(C(=O)CCC(=O)N2CCN(c3ccccc3)CC2)cc1	-21%
O=C(NCCc1c[nH]c2ccccc12)/C(=C/c1cccnc1)NC(=O)c1ccccc1	-16%
C(=C\c1ccccc1)/CNCC1CCCO1 (configuration not stated)	8%
Cc1c(NC(=O)/C=C/c2ccc(S(=O)(=O)N3CCOCC3)cc2)c(=O)n(-c2ccccc2)n1C	1%
Cc1ccc(-c2nnc(SCC(=O)c3ccc(Cl)cc3)n2-c2ccccc2)cc1	-3%
Cc1ccc(C(=O)N(CC(C)C)c2nc3ccccc3s2)o1	6%
O=C(Nc1ccc(F)cc1)c1ccc(Cn2nc(N3CCN(c4ccccc4)CC3)ccc2=O)o1	18%
C[C@]12c3[nH]c4cc(-c5ccco5)ccc4c3CCN1C(=O)[C@@H](CC(=O)NCCN1CCOCC1)C[C@@H]2C(=O)N1CCCCC1	-23%
CCOc1ccc2[nH]c3c(NCCN(CC)CC)ncnc3c2c1	0%
O=C(O)c1cccc2c1C(=O)N(C1CCCC1)C2	7%
COc1ccc(/C=C(\C#N)c2c[nH]c3ccccc23)cc1	22%
Cc1ccc(N(C(=O)c2csnn2)C(C(=O)NC2CCCC2)c2cccnc2)cc1 (configuration not stated)	20%
Cc1ccsc1C1CC(=O)NC2=C1C(=O)CC(C)(C)C2 (configuration not stated)	0%

Quoted at random: 6 compounds from above.
Molecule	VDR inh
Cc1ccc(-c2nnc(SCC(=O)c3ccc(Cl)cc3)n2-c2ccccc2)cc1	-3%
Cc1ccc(N(C(=O)c2csnn2)C(C(=O)NC2CCCC2)c2cccnc2)cc1 (configuration not stated)	20%
O=C(Nc1ccc(F)cc1)c1ccc(Cn2nc(N3CCN(c4ccccc4)CC3)ccc2=O)o1	18%
COc1ccc(/C=C(\C#N)c2c[nH]c3ccccc23)cc1	22%
Cc1ccsc1C1CC(=O)NC2=C1C(=O)CC(C)(C)C2 (configuration not stated)	0%
C[C@]12c3[nH]c4cc(-c5ccco5)ccc4c3CCN1C(=O)[C@@H](CC(=O)NCCN1CCOCC1)C[C@@H]2C(=O)N1CCCCC1	-23%

New compounds follow:
Molecule	VDR inh
CCOC(=O)C1=C(C)NC2=C(C(=O)C(C(=O)OCC)C(c3cccc(OC)c3)C2)C1c1ccccn1 (configuration not stated)	7%
Clc1ccc(CN(CC2CCCO2)C(c2cccs2)c2nnnn2C2CCCC2)cc1 (configuration not stated)	-1%
CC1Cc2ccccc2N1C(=O)COC(=O)c1cccnc1Cl (configuration not stated)	-8%
O=C(COc1ccc(F)cc1Cl)Nc1ccc(S(=O)(=O)Nc2nccs2)cc1	-8%
Cc1ccc(N(CCC#N)C(=O)COC(=O)c2nc3nc(C)cc(C)n3n2)cc1	11%
O=C(Cc1coc2ccc3ccccc3c12)Nc1nnc(C2CC2)s1	-2%
COC(=O)c1ccccc1NC(=O)CSc1n[nH]c(CC(C)C)n1	11%&-14%
CCCCNC(=O)CCCCCNS(=O)(=O)c1ccc(Br)cc1	-1%
CN(C)c1ccc(-c2cc(-n3ccnc3)ncn2)cc1	50µM*
COc1ccc(Cl)cc1NC(=O)N1CCN(S(=O)(=O)c2ccc3c(ccn3C)c2)CC1	17%
Cc1ccc(NC(=O)Cn2cnc3c(cnn3C(C)(C)C)c2=O)cc1	-1%
COc1ccc(NC(=S)Nc2ccc(OC(F)F)cc2)cn1	7%
CCOc1ccc(CN2CCC(n3nccc3NC(=O)c3ccccc3OC)CC2)cc1	-5%
Cc1cc(SCC(=O)OC(C)C(=O)N(C)c2ccccc2)nc2ccccc12 (configuration not stated)	2%
Cc1ccc(S(=O)(=O)Cc2ccc(C(=O)N3CCN(c4ccc(F)cc4)CC3)o2)cc1	9%
CCOC(=O)N1CCN(C(=O)Nc2ccc3nc(-c4ccccn4)c(-c4ccccn4)nc3c2)CC1	-6%
N/C(Cc1ccc(Cl)cc1Cl)=N\OC(=O)Cc1ccc(Cl)cc1	-3%
CC(=O)/C(=C\N(C)C)Sc1ccc(Cl)cc1	-2%
CCOC(=O)[C@H]1[C@H]2COc3ccc(C)cc3[C@@H]2N2C(=O)c3ccc(F)cc3NC(=O)[C@@]12C	-8%
Cc1ccc(F)cc1CNC(=O)C1CCC(=O)N(CC2CCCCC2)C1 (configuration not stated)	-5%
Cc1ccc(-c2cn3c(n2)sc2cc(C(=O)NCCCN4CCCCCC4)ccc23)cc1	3%
CCOc1ccc(N(CC(=O)N2CCN(c3ccccc3F)CC2)S(=O)(=O)c2c(C)noc2C)cc1	-1%
O=C(NC1CCCC1)C(c1cccs1)N(C(=O)c1ccco1)c1ccc2c(c1)OCO2 (configuration not stated)	-11%
CCc1ccc2c(c1)C(c1ccc([N+](=O)[O-])cc1)=NNC(c1ccccc1)=N2	-3%
COC(=O)c1ccc(C)c(NC(=O)Cc2coc3cc(OC)ccc23)c1	8%
COc1ccc(N2Cc3cccc(C(=O)Nc4cc(C)cc(C)c4)c3C2=O)cc1	-8%
COc1ccc(C(=O)NC2CCN(C(=O)NCc3ccccc3)CC2)cc1	24%
Cc1c(NC(=O)c2ccccc2N(C)S(=O)(=O)c2ccccc2)c(=O)n(-c2ccccc2)n1C	0%
O=C1NC[C@@H](c2ccccc2)OC(=O)[C@@H](Cc2ccc(F)cc2)C/C=C\C[C@@H]1CC(=O)N(CCO)Cc1ccccc1	-3%
COCCn1c(N2CCN(c3ccc(OC)cc3)CC2)nc2c1c(=O)[nH]c(=O)n2C	28%
COc1ccc(OCC(=O)Nc2ccc(NC(=O)c3ccco3)c(C)c2)cc1	-20%
COc1cc2c(cc1OC)C(COc1ccc3c(C)cc(=O)oc3c1)N(C(=O)c1cc(Cl)ccc1OC)CC2 (configuration not stated)	-13%
Cc1ccc(S(=O)(=O)c2nnn3c2nc(N(C)Cc2ccccc2)c2cc(Cl)ccc23)cc1C	-7%
Nn1c(SCC(=O)Nc2c(F)cc(F)cc2Br)nnc1C1CCCCC1	-21%
Cc1ccc(N2C(=O)N3[C@@H]4c5ccccc5OC[C@@H]4[C@@H](c4ccccc4)[C@@]3(C)C2=O)cc1	-7%
COc1cccc(COC(=O)c2sc3nc4n(c(=O)c3c2C)CCC4)c1OC	-13%
COc1ccccc1CN1C[C@@H]2C[C@@H](c3ccc(C)cc3)N3CCC[C@@]23C1=O	11%
Cc1nn(CC(=O)NCCN2CCOCC2)c(=O)c2cc3sccc3n12	-5%
Cc1ccc(S(=O)(=O)NCCSc2nnc(N)s2)cc1	-9%
CCOC(=O)CNC(=O)Cn1cnc2ccc(S(=O)(=O)N3CCC(C)CC3)cc2c1=O	-9%
Cc1nc2sccn2c(=O)c1S(=O)(=O)NCC1CCN(Cc2ccccc2Cl)CC1	21%
COc1cccc(CC(=O)Nc2ccc3c(c2)OC2(CCCC2)O3)c1	-19%
O=C(N/N=C/c1cccc(O)c1)c1ccccc1O	-1%
COc1cccc(NC(=O)CN(C)C(=O)c2ccccc2Sc2ccccc2C#N)c1	-1%
Clc1ccccc1CNc1nc2ccccc2c2nc(-c3cccnc3)nn12	-13%
COc1ccc(NC(=S)NNc2ccc([N+](=O)[O-])cc2S(=O)(=O)Nc2ccc(C)cc2C)cc1	45µM*
O=C(Nc1ccc(O)cc1)c1cccc(S(=O)(=O)N2CCOCC2)c1	6%
COC(=O)[C@H](CC(C)C)NC(=O)Nc1ccc(F)cc1	5%
COC(CN(C(=O)CCl)C(C(=O)NC1CCCCC1)c1ccccc1C)OC (configuration not stated)	-22%
CC1(OC(=O)C2CCCC2)C(=O)C=C2C=C(c3ccsc3)N(Cc3ccco3)C=C2C1=O (configuration not stated)	?

(cont.)
Molecule	VDR inh
N/N=C1\CCCc2nonc21	-4%
Cc1cccc(NC(=O)c2cccc(C(F)(F)F)c2)c1	-9%
Cc1cccc(NC(=O)CCn2ccnc2C)c1	9%
COc1ccc(S(=O)(=O)N(C)C[C@H]2Oc3ccc(NC(=O)C4CC4)cc3C(=O)N([C@H](C)CO)C[C@@H]2C)cc1	-19%
NC(=O)/C(=C\c1ccccc1)NC(=O)c1ccc(NC(=O)c2ccccc2)cc1	-10%
COc1ccc(CCN(Cc2cc3cc(C)ccc3[nH]c2=O)C(=O)N2CCCC2)cc1OC	9%
COc1cccc(NC(=O)Cn2nc(Cc3cccnc3)c3ccccc3c2=O)c1	-4%
COC(=O)Nc1nc2ccc(C(=O)c3ccccc3)cc2[nH]1	8%
CCOc1ccc(N2CC(c3nc4ccccc4n3CCOc3ccccc3)CC2=O)cc1 (configuration not stated)	17%
CSc1ccccc1NC(=O)COC(=O)Cc1cccs1	-3%

Carrying on.
Molecule,VDR inh
CCN1Cc2cc(OC)ccc2-c2ccccc2S1(=O)=O,-16%
O=c1oc2ccccc2cc1-c1nnc(Nc2ccc(Cl)cc2Cl)s1,-17%
CCc1nc2ccc(C(=O)NCc3ccc(OC)c(OC)c3)cc2nc1CC,6%
O=S(=O)(Nc1ccc2ccccc2n1)c1ccc2c(c1)CCO2,-3%
Cc1ccc(S(=O)(=O)NCCC(=O)NCc2ccco2)cc1,2%
CC1=NN(c2ccccc2)C(=O)/C1=C/c1cccc(C)c1,50µM*
O=C(NCc1ccc(Cl)cc1)c1cc(-c2ccc(F)cc2)on1,1%
S=C(NCc1cccs1)NCC1CCCO1 (configuration not stated),-1%
CN(C)c1ccc(N=Nc2ccccc2C(=O)OCC(=O)Nc2ccccc2C(F)(F)F)cc1,-10%
Cc1noc(C)c1-c1ccc2ncnc(N3CCOCC3)c2c1,50µM*
CC1CCCCN1C(=O)COC(=O)c1ccc2ccccc2n1 (configuration not stated),-2%
C/C(=N\N1CCN(Cc2ccc(C)cc2)CC1)c1ccco1,-30%

Brought forward from above: three compounds, followed by the next part.
Molecule,VDR inh
Cc1noc(C)c1-c1ccc2ncnc(N3CCOCC3)c2c1,50µM*
CC1CCCCN1C(=O)COC(=O)c1ccc2ccccc2n1 (configuration not stated),-2%
C/C(=N\N1CCN(Cc2ccc(C)cc2)CC1)c1ccco1,-30%
Cc1cccc(C(=O)NC(=S)Nc2cccc3nc(C)ccc23)c1,-5%
O=C(Nc1ccc2c(c1)CCCN2C(=O)c1cccs1)c1ccccc1Cl,-4%
CCOc1ccccc1N(C(=O)c1snc(C(N)=O)c1N)C(C(=O)NC1CCCC1)c1cccs1 (configuration not stated),-16%
COc1ccc(/C=C(\NC(=O)c2ccccc2)C(=O)NCCN2CCOCC2)cc1OC,8%
CCc1ccc(N(C(=O)c2snc(C(N)=O)c2N)C(C(=O)NC2CCCC2)c2ccco2)cc1 (configuration not stated),-15%
CC(C)(CO)CNC(=O)CC1C(=O)NCCN1CC(c1ccccc1)c1ccccc1 (configuration not stated),-3%
Cc1ccc(C(=O)Oc2cc(C)[nH]c(=O)c2[N+](=O)[O-])cc1,0%
CCCN1CCN(C(=O)Cn2c(-c3cccs3)cc3cc(F)ccc32)CC1,12%
Cn1nnnc1SCCNCc1ccccc1OCc1ccccc1F,8%
CN(CC(=O)Nc1cccc(F)c1)C(=O)c1cccnc1Sc1ccc(Cl)cc1,-3%
Cc1n[nH]c(=O)c2c(NC(=O)CSc3nc4ccccc4c(=O)n3C(C)C)oc(C)c12,0%
CCc1ccc(C2C(C(=O)Nc3ccccc3)=C(C)Nc3nc(SCC(=O)c4ccc(C)cc4)nn32)cc1 (configuration not stated),16%
CCOC(=O)c1ccc(NC(=O)c2ccccc2[N+](=O)[O-])cc1,?
O=C(Nc1cccc(F)c1)c1ccc2snnc2c1,9%
COc1ccc(-c2csc(NC(=O)CSc3ncn[nH]3)n2)cc1OC,-7%
COc1ccc(OC)c2c(=S)c3ccccc3[nH]c12,4.5µM*
O=c1c(Cc2ccc(F)cc2)c(O)ccn1Cc1ccc(F)cc1,-5%
Cc1cccc(NC(=O)NC2(C)CCS(=O)(=O)C2)c1 (configuration not stated),17%
COCCNC(=O)C(c1ccco1)N(C(=O)Cn1nnc2ccccc21)c1ccccc1C (configuration not stated),0%
COc1ccc(-c2cc3ccc(O)c(CN4CCC(C)CC4)c3oc2=O)cc1,-4%
CCCCNC(=O)Nc1c(C(=O)OC)[nH]c2ccc(C)cc12,3%
CC(=O)Nc1ccc(S(=O)(=O)NNC(=O)C2CCCCC2)cc1,3%
COc1ccc2cc(-c3nc(-c4ccc(N(C)C)cc4)no3)c(=O)oc2c1,9%
Cc1cc(C)[n+]2n1C(=O)C(c1ccccc1)=C2[O-],12%&-15%
C[C@H](N)CCCP(=O)(O)O,4%
CCOC(=O)c1cn[nH]c1C(F)(F)F,0%
COc1cc(C(=O)Nc2ccc(C)cn2)c([N+](=O)[O-])cc1OC,0%
Cc1ccc(C)n1-c1ccc(-c2ccn[nH]2)cc1,-3%
COc1cccc(CNC(=O)c2cc(C)nc3c2c(C)nn3-c2cccc(F)c2)c1,6%
CN(Cc1cccnc1)C(=O)CNC(=O)c1ccc(Cl)cc1Cl,-8%

Some of the compounds tested. The share of hits here may be higher or lower than overall.
